From PubChem
Sfp PPTase inh – blocks B. subtilis Sfp PPTase activity; Biochemical Sfp PPTase activity, qHTS; Potency, µM, inactives show max response, negative = inhibition, actives largely listed as inhibitors; 310,000 compounds, 3.5% hits; AID 1490; Q9F4F7; active = well fitted inhibition curve with a large enough effect; inconclusive = small, poorly fitted or top-dose-only effect, or another doubt; inactive = no such curve, though single readings can be large or run the other way;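 also: the enzyme is Sfp with the accession as filed and its product quenches rhodamine fluorescence; potency is read from the fitted curve at half-maximal effect; 0% = enzyme reaction without inhibitor and -100% = no enzyme wells; top concentration of the series not given in the record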
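Fluorescence-quenching assay with 15 nM Sfp, 5 uM rhodamine-CoA and 12.5 uM BHQ-2-labelled ybbR peptide in pH 7.6 Hepes/MgCl2 buffer. Enzyme was pre-incubated with compound for 15 min at room temperature. Rate was taken from the 30-min fluorescence change (525/598 nm).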
TRPML1 blocker – human mucolipin-1 channel inhibition. TRPML1-inducible cells, Ca2+ dye fluorescence, FDSS; active compounds read low; inhibition of EC80 agonist-evoked calcium signal. 390,000 compounds, 0.02% hits. activity change, negative = inhibition, % (no concentration beside the values). Q9GZU1; in the data active means activity change below about -50%; inconclusive means about -30% to -50%; inactive means above about -30%;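 also: stimulus is agonist 54-4 at its EC80 concentration; % is scaled to controls: 0 for no effect and ±100 for the full control effect; compound concentration not given in the record; the text of the record puts the active cut at -80%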
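Tet-induced TRPML1-DL cells loaded with Ca8 no-wash calcium dye were read kinetically on FDSS. Compound addition was followed by EC80 agonist 54-4 (4 uM final); inhibition was read over 110 s.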
TRPV1 PAM – potentiators of human vanilloid receptor 1 (TRPV1) | Q8NER1 | TRPV1-expressing cells, Fluo-8 calcium influx, capsaicin EC20 potentiation; host cell line not named in the record; control for the full effect not named in the record | potentiation, % at 8.33 µM | 320,000 compounds, 0.02% hits | AID 540277; active means potentiation above 80%; inconclusive means 30% to 80%; inactive means below 30%; also: 0% is about no effect
Target sequence (Q8NER1 whole entry, looked up): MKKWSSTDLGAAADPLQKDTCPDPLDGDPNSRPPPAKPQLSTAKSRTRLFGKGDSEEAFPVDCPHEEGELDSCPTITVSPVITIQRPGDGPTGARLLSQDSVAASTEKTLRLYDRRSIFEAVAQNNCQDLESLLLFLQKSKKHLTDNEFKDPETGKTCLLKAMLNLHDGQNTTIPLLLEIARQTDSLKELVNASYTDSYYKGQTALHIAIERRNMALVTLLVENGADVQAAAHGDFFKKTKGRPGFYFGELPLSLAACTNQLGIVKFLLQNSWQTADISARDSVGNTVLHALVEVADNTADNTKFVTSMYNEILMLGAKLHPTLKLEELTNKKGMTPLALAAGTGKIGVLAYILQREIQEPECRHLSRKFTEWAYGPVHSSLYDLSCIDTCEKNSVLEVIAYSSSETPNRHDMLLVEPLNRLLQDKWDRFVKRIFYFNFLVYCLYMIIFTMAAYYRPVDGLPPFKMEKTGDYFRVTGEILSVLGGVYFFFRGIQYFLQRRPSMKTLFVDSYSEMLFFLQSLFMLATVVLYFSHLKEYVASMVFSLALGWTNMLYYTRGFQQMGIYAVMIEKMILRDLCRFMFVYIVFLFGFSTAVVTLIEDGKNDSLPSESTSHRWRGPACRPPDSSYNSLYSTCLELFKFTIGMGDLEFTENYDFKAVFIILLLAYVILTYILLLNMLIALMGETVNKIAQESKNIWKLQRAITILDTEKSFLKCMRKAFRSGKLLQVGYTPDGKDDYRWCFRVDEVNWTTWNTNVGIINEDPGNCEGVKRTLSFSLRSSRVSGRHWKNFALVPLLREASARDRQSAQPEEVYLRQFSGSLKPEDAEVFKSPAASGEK
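TRPV1-expressing cells were cultured overnight at 35.5C and loaded with Fluo-8 calcium dye for 40 to 90 min at room temperature. After a 10 s baseline, compound was added and calcium influx was read kinetically for 3 min (ex 480/em 520 nm).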
ClpP mod – qHTS Assay for Activators of ClpP. purified B. subtilis ClpP, FRET peptide cleavage, 20 min. AID 651965, 2013. ATP-dependent Clp protease proteolytic subunit (Bacillus subtilis (strain 168)), P80244. Potency, µM (titrated, usually from 57.5 µM), for inactives: at the top dose activity change, negative = active. 340,000 compounds, 1.9% hits; active = well fitted falling curve with a large enough effect; inconclusive = small, poorly fitted or top-dose-only effect; inactive = no such curve, though single readings can be large or run the other way; also: potency is read from the fitted curve at half-maximal effect; the source files actives as falling curves though it sought activators and does not explain the sign; nearly all actives have a fitted effect of over 65% in size; many hits overshoot -100%
Target sequence (P80244 whole entry, looked up): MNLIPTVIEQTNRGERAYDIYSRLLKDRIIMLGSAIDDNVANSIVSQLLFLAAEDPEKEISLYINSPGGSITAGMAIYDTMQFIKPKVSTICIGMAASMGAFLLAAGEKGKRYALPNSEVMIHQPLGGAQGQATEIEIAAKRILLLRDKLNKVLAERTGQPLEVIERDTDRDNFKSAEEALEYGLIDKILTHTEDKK
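Buffer: 100 mM Tris/HCl pH8, 100 mM KCl, 0.05% low protease BSA, 2.5% glycerol, 0.01% Tween-20. ClpP 10 microg/mL final; 20 min RT; delta FRET normalized to ADEP and DMSO controls.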
PINK1 modulator – modulators of PINK1 expression; PINK1 immunofluorescence, high-content cytometry, 24 h; Potency, µM (top dose mostly 76.6 µM), without a hit: at the top dose activation (PINK1 increase), actives largely listed as activators; 410,000 compounds, 0.2% hits; active = well fitted activation curve with a large enough effect; inconclusive = small, poorly fitted or top-dose-only effect; inactive = flat fitted curve, though single readings scatter; cell line not stated here;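 also: potency is read from the fitted curve at half-maximal effect; % of control where 0% means no effect; nearly all actives have a fitted effect of over 65% in size; a mitochondrial uncoupler was the plate control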
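PINK1 protein level read as immunofluorescence by microplate cytometer in a fixed, stained stable cell line after 24 h exposure to five compound concentrations, with CCCP as control.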
TRPML1 agonist – human mucolipin-1 channel agonism; 410,000 compounds, 0.12% hits; activation, % (test concentration not listed); AID 624414; TRPML1-expressing cells, Ca2+ dye fluorescence, FDSS; host cell line not named in the record; reference of the full effect not given here; Q9GZU1; in the data active = activation above about 50%; inconclusive = about 30% to 50%; inactive = below about 30%; also: 0% is about no effect; the text of the record puts the active cut at 80%
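In this qHTS format, compounds were pin-transferred onto Ca8-dye-loaded TRPML1-DL cells induced with Tet overnight, and intracellular Ca2+ fluorescence was recorded kinetically for 110 s after a 10 s baseline. A subsequent 4uM final 54-4 (EC80) addition followed by a second 110 s read served as the antagonist phase.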
Menin-MLL FL inh – displaces fluorescein MLL peptide from human menin; Fluorescence polarization, fluorescein-MLL peptide displacement from menin; FP activity change, % at 61.4 µM; 290,000 tested, under 10 active; AID 1766; inconclusive = falling polarisation curve, or a change in total fluorescence; inactive = total fluorescence flat and polarisation flat or rising; no compound was filed as active; the % refers to the polarisation; negative = inhibition;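 also: % of control where 0% means no effect; inhibitors lower the polarisation; unlabelled MLL peptide was the positive control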
* hit, by the source's call; ? = inconclusive; . = no result given; & = joins results of further samples; [ ] = remark or other dose. This is a random part of the collection; any-hit rate near 4.4%.

Values run as follows: Sfp PPTase inh, TRPML1 blocker, TRPV1 PAM, ClpP mod, PINK1 modulator, TRPML1 agonist, Menin-MLL FL inh
Cc1c(NS(=O)(=O)c2ccc3[nH]c(=O)[nH]c3c2)c(=O)n(-c2ccccc2)n1C
    9.2%, -4.1, -8.1, -2.1%, ?, -0.1, 3.5
COC(=O)c1oc2c(c1C)C(=O)CC(C)(C)C2
    12.6%, 9.6, 13.7, ., 0.1%, -0.6, -5.3
Cc1nc2c(-c3ccc(F)cc3)c(C)nn2c(C)c1CCC(=O)NCc1ccc(Cl)cc1
    ., -5.9, ., -14.1%, 2.3%, -0.4, .
COC(=O)c1cc(NC(=O)CN2CCN(C(C)=O)CC2)cc(C(=O)OC)c1
    4.0%, 52.5, 4.2, -0.1%, 2.0%, 0.2, 4.5
Cc1cccc(CNc2ncc(-c3cccc([N+](=O)[O-])c3)n2C)c1
    -8.9%, 1.8, -3.9, 0.9%, 1.9%, 0.5, -6.0
CN1CCN(c2nc3c(c(=O)n(C)c(=O)n3C)n2Cc2cccc(Br)c2)CC1
    13.6%, 36.4, 1.0, -3.9%, 3.3%, 0.7, -1.6
COc1ccc(Cl)cc1C(=O)OCC(=O)N(CC(C)C)c1c(N)n(Cc2ccccc2)c(=O)[nH]c1=O
    ., -3.9, 19.2, -14.2%, 0.6%, 1.3, .
CC(C)(C)NC(=S)NCc1ccc2c(c1)OCO2
    17.7%, -7.9, -14.7, -0.4%, -1.4%, -0.6, 0.2
Cc1ccc(-n2c(SCc3nc4ccccc4[nH]3)nnc2-c2ccncc2)cc1
    -0.4%, -0.8, -6.1, 0.3%, 2.2%, -0.5, .
CCNC(=O)NC1(C(=O)N2CCC(Cc3ccccc3)CC2)CCCCC1
    4.5%, 10.5, 9.2, 0.1%, 0.1%, 0.3, 0.7
CC1(C)[C@@H](O)CC[C@]2(C)C3C(O)C=C4[C@H]5C[C@@](C)(CO)CC[C@]5(C)CC[C@]4(C)[C@]3(C)CC[C@@H]12 (stereo not given in full)
    0.4%, -14.9, ?, -0.5%, -0.1%, -0.7, -2.5
Cc1ccc(OCCC(=O)OCC(=O)Nc2ccccc2)cc1
    12.4%, -8.0, -5.9, -2.4%, -1.5%, 2.5, .
COc1ccc(S(=O)(=O)N2CCSC2c2ccccc2)cc1 (stereo not given)
    3.2%, 5.3, -9.6, -0.5%, 5.4%[38.3 µM], 0.6, -1.0
CCCCN1CC(N(C)CCN(C)C)CS1(=O)=O (stereo not given)
    ., -7.1, ., -0.6%, -0.4%, 0.5, .
CC(C)C[C@H]1CN(CCCC[C@H]2CNC(=O)C(=O)N2Cc2ccccc2)C(=O)C(=O)N1Cc1ccccc1
    ., ., ., -1.4%, -0.8%, -0.9, .
COc1ccc(C2NC(=O)NC(C)=C2C(=O)OC2CCCCC2)cc1OC (stereo not given)
    8.1%, 0.1, -7.3, ., 1.2%, 1.4, 2.2
COc1ccc(-n2c(C)n[nH]c2=O)cc1
    33.1%[activator], 16.4, 19.6, 1.4%, -1.0%, 0.5, 4.5
Cc1cc(-c2cccnc2)c(C#N)c(SCc2cccc(F)c2)n1
    79.4µM*, 19.6, 2.2, 0.7%, 2.7%[38.3 µM], 6.2, 1.3
COc1ccc2nc(SCC(=O)Nc3nonc3C)[nH]c2c1
    9.6%, 16.6, 6.3, ., -0.3%, -1.3, -5.8
Cc1ccc(CNC(=O)CCc2c(C)nc3c(c(C)nn3-c3ccccc3)c2C)cc1
    ., -22.5, ., 0.0%, 9.8%, 3.8, .
C=CCN1C=CC=C/C1=C1\SC(=S)N(C)C1=O
    ?, 1.4, 2.1, ., -0.6%, -0.6, 2.0
CCCC(=O)Nc1ccc(C(=O)NCC(=O)OCC)cc1
    -2.7%, 4.3, -3.8, 0.7%, 0.1%, 5.9, -1.2
Oc1ccccc1N1CCN(CC(O)COC2CCCc3ccccc32)CC1 (stereo not given)
    -28.8%, 6.8, 8.3, -2.8%, 1.2%, 0.0, 7.3
CCC(=O)N1CCc2cc(S(=O)(=O)NC(CC(C)C)C(=O)Nc3ccc(CC)cc3)ccc21 (stereo not given)
    ., 7.6, ., -0.3%, 3.0%, 0.5, .
Cc1ccccc1NC(=O)CCS(=O)(=O)c1ccc(Br)s1
    6.1%, 3.7, -8.3, ., 0.2%, -0.4, 4.2
COC(=O)c1cc2ccccc2n1S(=O)(=O)c1ccccc1
    3.4%, 18.8, -11.9, 0.8%, -0.5%, 0.9, 0.9
COc1cccc(C(C(=O)NC2CCCC2)N(CCC(C)C)C(=O)CCC(=O)Nc2cc(C)on2)c1 (stereo not given)
    0.8%, -5.0, -6.3, ., -0.4%, 1.8, -0.8
Cc1ccc(C)c(N2CCN(C(=O)Cn3ncc4c(=O)oc5ccc(C)cc5c43)CC2)c1
    ., 1.2, ., 3.9%, -0.9%, 0.5, .
Cc1nnc(SCc2ccc(F)cc2)n1NC/C=C/c1ccccc1
    -9.0%, -1.5, -42.9, -0.4%, 20.2%, 1.8, -2.4
COc1cccc(-c2nc(CS(=O)(=O)CC(=O)NCCCN3CCN(C)CC3)c(C)o2)c1
    -0.2%, -1.1&-11.0, -0.7, -6.5%&-8.1%, 3.0%&-0.6%, 0.3&-0.7, 1.2
COC(=O)CSc1nc(-c2cccs2)ccc1C#N
    39.8µM*, -5.2, -2.5, 6.31µM*, 2.6%[38.3 µM], -0.1, 12.4
CCOC(=O)COc1ccc2c(c1)C(=O)CC1(CCCCC1)O2
    2.3%, 13.4, -9.4, 28.2µM*, -2.0%[38.3 µM], 3.4, 3.5
Cc1cccc(NS(=O)(=O)c2cccc(C(=O)N3CCN(C/C=C/c4ccccc4)CC3)c2)c1
    ., 21.3, -3.2, -0.5%, -0.1%, 2.5, .
CCN(CC(=O)NC1CCCCCC1)S(=O)(=O)c1ccccc1
    22.9%, 33.4, -23.3, 0.7%, -0.6%, 0.6, 0.9
Cc1c(NC(=O)C23CC4CC(CC(C4)C2)C3)c(=O)n(-c2ccccc2)n1C
    -0.5%, -5.2, -3.2, 1.2%, 0.3%, -0.5, -0.8
CSCCC(NC(=O)c1c(C)oc2c1CCCC2)C(=O)O (stereo not given)
    3.8%, 16.8, -3.1, 2.3%, -4.6%, -0.5, 3.3
Cc1ccc(CNC(=O)CCS(=O)(=O)c2cc(Br)cc3c2N(C(=O)C2CC2)CC3)cc1
    ., 5.5, ., 1.8%, 6.3%, 0.6, .
O=C(CCNC(=O)c1ccc([N+](=O)[O-])cc1)Nc1cccc(S(=O)(=O)N2CCOCC2)c1
    ., -1.0, -0.1, -0.2%, 1.9%, 1.3, .
CCOC(=O)c1cnn(-c2nc3sc4c(c3c(=O)[nH]2)CCCC4)c1N
    5.8%, ., -0.3, ., ., ., 1.1
Cc1ccc(Cc2c(-c3ccco3)nc3ccc(Cl)cn23)cc1
    ., 5.9, ., -11.6%, -0.3%, 0.0, .
C=C(C)C1Cc2c(C)nn(-c3ccccc3)c2C1 (stereo not given)
    -3.7%, 1.9, -13.7, -0.6%, -2.3%, -0.3, 1.3
COc1cccc(-c2cnc(C(O)c3cc(Cl)cc(Cl)c3)[nH]2)c1 (stereo not given)
    ., ., ., -3.2%, 5.1%, 1.2, .
O=C(CCS(=O)(=O)c1ccc(Br)cc1)NCCc1ccc(Cl)cc1
    17.0%, 16.2, -6.1, 0.0%, 1.8%, 0.4, 0.1
CCC(=O)OCn1nnc2ccccc2c1=O
    4.9%, 5.7, 0.6, ., 1.1%, -0.3, 5.1
COc1ccc(Nc2ccc(C(N)=O)cc2[N+](=O)[O-])cc1
    9.1%, 10.8, 2.9, ., -1.0%, 1.7, 0.6
O=C(NCC(F)(F)F)Nc1ccccn1
    -1.8%, -7.5, 8.0, -0.1%, 9.3%[38.3 µM], -0.4, 2.1
Cn1c(SCc2ccccc2)nnc1-c1ccc(O)cc1
    5.7%, -12.0, 10.7, 0.3%, -0.1%, 0.0, ?
O=C(COC(=O)c1cccnc1Cl)c1ccc(Cl)s1
    ., 4.3, ., 0.8%, 0.1%, 0.0, .
C#CCOCCOCCOCCNc1nc(N2CCN(C(=O)[C@H](CCCCN)n3cc([C@@H](N)CO)nn3)CC2)nc(N2CCN(C(=O)[C@H](Cc3ccc(O)cc3)n3cc([C@@H](N)CC(C)C)nn3)CC2)n1
    6.0%, 3.0, -10.2, -1.0%, 1.3%, -0.6, 1.3
Cc1ccc(CCNC(=O)c2c[nH]c3ccc(S(=O)(=O)Nc4ccc(C)cc4C)cc3c2=O)cc1
    ., -21.2, 2.0, -6.3%, 2.4%, 1.5, .

The listing continues:
Values run as follows: Sfp PPTase inh, TRPML1 blocker, TRPV1 PAM, ClpP mod, PINK1 modulator, TRPML1 agonist, Menin-MLL FL inh
CCOc1cccc(C(=O)NC(=S)Nc2ccc(N3CCN(CC)CC3)cc2)c1
    -6.0%, -8.0, 5.3, ., -0.7%, -0.3, -7.8
CC1(C)CC(=O)C=C(c2ccc(Oc3ccccc3)cc2)C1
    ., 27.6, -16.0, 1.3%, 4.6%, 0.8, .
O=C(C[C@H]1C[C@H](C(=O)N2CCCCC2)[C@@]2(CCc3ccccc3)c3[nH]c4ccc(Cl)cc4c3CCN2C1=O)NCCCn1ccnc1
    ., 42.6, ., 0.5%, -0.7%, 0.1, .
O=c1[nH]cnc(O)c1C(c1cccc([N+](=O)[O-])c1)c1c(O)nc[nH]c1=O
    -0.1%, -3.7, -4.5, ., -3.4%, 0.1, -0.8
CSC1SCC2C(=O)N(C)C(C(C)C)C(=O)OCC(NC(=O)c3cnc4ccccc4n3)C(=O)NC(C)C(=O)N(C)C1C(=O)N(C)C(C(C)C)C(=O)OCC(NC(=O)c1cnc3ccccc3n1)C(=O)NC(C)C(=O)N2C (stereo not given)
    ., 8.5, ., 0.3%, -2.0%, -0.2, .
COc1ccc(CCC(=O)NNC(=S)NCc2ccc(F)cc2)cc1
    23.1%, -11.3, 3.0, 2.0%, -0.4%, -0.4, -6.2
COc1ccc(NC2=Nc3ccccc3N[C@@]23C[C@H]2CCCC(=O)N4CC[C@@H](C3)[C@@H]24)cc1
    ., 11.0, ., -1.8%&-0.5%, -0.2%, -0.7&-1.2, .
Cc1ccc(N2CC(C(=O)OCC(=O)Nc3c(C)cccc3C)CC2=O)cc1 (stereo not given)
    ., -9.8, ., 0.7%, 0.7%, -0.6, .
